Screening data deposited in PubChem by National Center for Advancing Translational Sciences (NCATS).
StopGo reporter: lowers the luciferase signal of an FMDV 2A StopGo reporter. 410,000 tested, 1.2% active. human cells with a luciferase reporter of 2A StopGo recoding; control for the full effect not named in the record. Potency, µM (highest dose often 57.9 µM), for inactives: at the top dose signal change, negative = less light; active = well fitted falling curve with a large enough effect; inconclusive = small, poorly fitted or top-dose-only effect; inactive = no such curve, though single readings can be large or run the other way; tested in HEK293T cells; note: % is set by controls: 0 for no effect and ±100 for the full control effect; nearly all actives have a fitted effect of over 45% in size; luciferase light after 4 h
Lassa entry inh: blocks Lassa virus binding to or entry into cells | Potency, µM (titrated, usually from 37.9 µM), without a hit: top-dose activity change, negative = inhibition, most hits filed as inhibitors | Lassa virus pseudotype entry inhibition, cell reporter; control for the full effect not named in the record | 300,000 tested, 1.2% active; active means well fitted inhibition curve with a large enough effect; inconclusive means small, poorly fitted or top-dose-only effect, or effect the other way; inactive means flat fitted curve, though single readings scatter; tested in HEK293 cells; note: % is set by controls: 0 for no effect and ±100 for the full control effect; nearly all actives have a fitted effect of over 50% in size; luciferase read-out
Marburg entry inh: inhibitors of Marburg virus binding or cell entry. Marburg virus pseudotyped entry inhibition, cell reporter; control for the full effect not named in the record; about a third of the inactives were read at about 46 µM. Potency, µM (series often up to 37.8 µM), for the others: top-dose activity change, negative = inhibition, actives largely listed as inhibitors. 300,000 tested, 1.8% active. AID 540276; active = well fitted inhibition curve with a large enough effect; inconclusive = small, poorly fitted or top-dose-only effect, or effect the other way; inactive = flat fitted curve, though single readings scatter; tested in HEK293 cells; about a fifth of its hits are not listed in these tables; note: % is set by controls: 0 for no effect and ±100 for the full control effect; luciferase read-out
Cruzain noTriton: blocks cruzain activity in detergent-free assay; P25779; purified cruzain, Z-FR-AMC fluorescence, no detergent; Potency, µM, for the others: max response, negative = inhibition, usual class: inhibitors; 200,000 tested, 2.3% active;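 note: plate controls were enzyme without inhibitor for no effect and buffer without enzyme for full effect; nearly all actives have a fitted effect of over 40% in size; top concentration of the series not given in the record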
Target sequence (P25779 123-467 limits assumed): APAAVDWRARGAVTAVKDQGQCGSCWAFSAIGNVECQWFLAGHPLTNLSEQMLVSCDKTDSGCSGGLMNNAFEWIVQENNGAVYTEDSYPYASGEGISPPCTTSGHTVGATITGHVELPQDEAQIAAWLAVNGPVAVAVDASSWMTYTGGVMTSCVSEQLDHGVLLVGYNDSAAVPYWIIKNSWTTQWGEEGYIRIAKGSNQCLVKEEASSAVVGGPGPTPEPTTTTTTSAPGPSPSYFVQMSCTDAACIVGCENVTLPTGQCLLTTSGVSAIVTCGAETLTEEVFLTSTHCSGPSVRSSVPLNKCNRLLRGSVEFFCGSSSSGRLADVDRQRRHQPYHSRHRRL
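Purified cruzain at 1.5 nM, pre-incubated 15 min with compound at room temperature in 100 mM sodium acetate pH 5.5, 5 mM DTT, 0.00005% Triton X-100. Reaction started with 2 uM Z-FR-AMC; AMC fluorescence increase over 60 s gives rate.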
NS1 function inh: inhibitors of influenza NS1 protein function; S. cerevisiae slowed by influenza A NS1, growth recovery by OD600; Potency, µM (series often up to 46.1 µM), for inactives: top-dose activity, positive = more growth; AID 2326; 270,000 tested, 0.4% active; active means well fitted rising curve with a large enough effect; inconclusive means small, poorly fitted or top-dose-only effect; inactive means no such curve, though single readings can be large or run the other way; note: nearly all actives have a fitted effect of over 50% in size
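In this qHTS, NS1 from influenza A is expressed in budding yeast, where it slows growth. Cells are switched from glucose to 2% galactose medium (pH 6.0, -URA), treated with compound, and growth recovery is read at OD600.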
RE007 growth inh: less growth of the S. pombe RE007 Vpr strain; S. pombe RE007 Vpr strain, BacTiter-Glo ATP luminescence, 24 h; control for the full effect not named in the record; Potency, µM (titrated, usually from 92.2 µM), without a hit: top-dose activity change, negative = less growth; 360,000 tested, 0.21% active; AID 651644; active = well fitted falling curve with a large enough effect; inconclusive = small, poorly fitted or top-dose-only effect; inactive = no such curve, though single readings can be large or run the other way;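 note: % is set by controls: 0 for no effect and ±100 for the full control effect; nearly all actives have a fitted effect of over 50% in size; the assay follows cell death caused by Vpr and the record does not say whether a fall means rescue or toxicity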
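Fission yeast strain RE007, carrying one chromosomally integrated HIV-1 vpr copy, was seeded at OD 0.01 in PMG+AL medium with 23 nL pinned compound. After 24 h at 30 °C and 99% humidity, viability was read by BacTiter-Glo luminescence.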
SARS PLpro yeast: blocks SARS-CoV papain-like protease in a yeast assay | S. cerevisiae expressing SARS-CoV PLpro, growth rescue; control for the full effect not named in the record | Potency, µM (doses to about 32.9 µM), for the others: at the top dose activity, positive = growth rescue | 330,000 tested, 0.19% active | AID 485353; active means well fitted rising curve with a large enough effect; inconclusive means small, poorly fitted or top-dose-only effect; inactive means no such curve, though single readings can be large or run the other way; note: 0% is about no effect; nearly all actives have a fitted effect of over 55% in size; growth read by luminescence after 48 h
Cruzain inh Det: cruzain (T. cruzi) inhibition with detergent; P25779; purified cruzain, Z-FR-AMC fluorescence, 0.01% Triton; Potency, µM, for inactives: max response, negative = inhibition, actives largely listed as inhibitors; 200,000 tested, 0.43% active; AID 1478;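 note: plate controls were neutral wells for no effect and buffer without enzyme for full effect; nearly all actives have a fitted effect of over 40% in size; top concentration of the series not given in the record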
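Z-FR-AMC hydrolysis (2 uM substrate) by cruzain (1.5 nM) monitored kinetically at ex 360/em 450 nm after 15 min room-temperature compound exposure; 0.01% Triton X-100, pH 5.5, 5 mM DTT.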
Numbers without * were called inactive; u = inconclusive; x = no result given; [ ] = another dose, or the depositor's remark. Unless noted, calls come from the whole dose curve; as a rule, active = well fitted curve in the direction sought with a large enough effect; inconclusive = small, poorly fitted or top-dose-only effect, or another doubt; inactive = no such curve, though single readings can be large; an effect the other way counts as inactive or inconclusive. Potency is the fitted concentration of half-maximal effect. Hits appear at their usual frequency. About 4.6% of those tested had a hit in this group.

SMILES | StopGo reporter | Lassa entry inh | Marburg entry inh | Cruzain noTriton | NS1 function inh | RE007 growth inh | SARS PLpro yeast | Cruzain inh Det
O=C(Nc1nc2ccccc2s1)c1ccc(OCC2CCCO2)cc1 (stereo not drawn) | -72.9% | 10µM* | u | 18.8% | -3.2% | -23.0% | -12.1% | -10.4%
O=C(CCC(=O)N/N=C/c1cc(Cl)cc(Cl)c1O)NCc1ccccc1 | -10.5% | u | u | x | 1.4% | 1.9% | 0.9% | x
CCNC(=O)N1CCN(C(=O)NCC)CC1 | -18.7% | 17.4%[46.1 µM] | -14.8%[46.1 µM] | x | 0.3% | -0.7% | 0.2% | x
CC(=O)c1ccc(-c2ccc(C(=O)N(C)c3c(N)n(Cc4ccccc4)c(=O)[nH]c3=O)o2)cc1 | -18.9% | -2.9% | 5.7% | x | x | -24.5% | 2.9% | x
COc1ccc(/C=N/n2c(-c3cccs3)n[nH]c2=S)cc1 | -9.5% | u | u | -10.1% | -47.3% | -6.2% | -5.1% | 1.5%
NCCCCCC(=O)N/N=C/c1ccc2nccnc2c1 | 6.7% | 0.4% | 2.82µM* | x | 3.4% | -6.6% | -2.5% | x
COc1ccc(S(=O)(=O)NCc2ccco2)cc1C(=O)N1CCOCC1 | 36.6%[activator] | x | -4.0%[46.1 µM] | x | 0.3% | 6.7% | 1.2% | x
O=C(COc1ccc2ccccc2c1)Nc1nccs1 | -35.1% | u | u | x | -2.8% | u | -1.0% | x
Cc1ccccc1NC(=O)Nc1ccc2nc(N3CCN(C)CC3)cc(C)c2c1 | -14.9% | u | x | 10.8% | x | x | x | 0.1%
CC(Oc1ccc2ccc(=O)oc2c1)C(=O)NCCN1CCOCC1 (stereo not drawn) | -10.7% | x | x | x | 5.0% | 1.0% | -1.4% | x
C/C=C/C(=O)OCC(=O)NC(=O)NC(C)C | -2.6% | u | -8.6% | 3.9% | -1.6% | -1.6% | 1.8% | 3.8%
COc1ccccc1OCCSc1nnnn1C1CCCCC1 | 52.3%[activator] | 11.4% | u | x | x | -7.9% | x | x
O=C1N=C(N2CCOCC2)S/C1=C\C=C/c1ccccc1 | 24.3% | u | 1.4% | -3.9% | -13.9% | 11.5%[3.69 µM] | -2.3% | -7.7%
O=C(COC(=O)c1cc[n+]([O-])cc1)Nc1cccc(Cl)c1Cl | -9.0% | 13.7%[46.1 µM] | 8.4%[46.1 µM] | x | x | 4.7% | 2.8% | x
N#Cc1cn(CC(=O)NCc2cccnc2)c2ccccc12 | x | -9.1% | 26.5% | 0.7% | 9.2% | 4.3% | 3.8% | 0.5%
COc1cc(/C=N/NC(=O)CCn2c3ccccc3c3ccccc32)ccc1O | x | u | -22.4% | 8.5% | 24.6% | 5.5% | -2.5% | -11.4%
CN(CC(=O)Nc1ccc(Cl)c(C(F)(F)F)c1)C(=O)c1ccc(N2CCOCC2)c([N+](=O)[O-])c1 | -23.4% | -20.2% | u | x | x | 12.5% | -10.6% | x
Cn1nc(C(C)(C)C)cc1C(=O)NCc1ccc(N2CCCC2=O)cc1 | u | -28.3% | u | 3.7% | -4.3% | 3.3% | -0.2% | 0.7%
CC1Cc2ccccc2N1C(=O)C1CCCN1S(=O)(=O)c1ccc(Cl)cc1 (stereo not drawn) | x | -4.7% | 8.3% | -2.7% | -5.1% | 13.6% | 0.1% | 2.4%
COc1ccc(CCNC(=O)CSc2nn(-c3ccccc3)c(=S)s2)cc1 | 7.3% | -10.5% | -18.8%[46.1 µM] | x | -5.4% | -1.8% | 5.9% | x
CC(C)C(=O)Nc1ccc2nn(-c3ccc(F)cc3)nc2c1 | -9.4% | x | x | x | -12.2% | -18.6% | -1.4% | x
Cc1ccc(OCCNC(=O)CCc2nc3sc4c(c3c(=O)[nH]2)CCCC4)cc1 | -1.4% | 9.5%[46.1 µM] | -26.1%[46.1 µM] | x | x | 21.3% | x | x
CCOC(=O)c1c(C)[nH]c(C)c1S(=O)(=O)N1CCN(c2cccc(C)c2)C(C)C1 (stereo not drawn) | -24.5% | x | x | x | -1.5% | -6.9% | 1.0% | x
Cc1noc(C)c1C(=O)N1CCC(C(=O)c2ccc(F)cc2F)CC1 | -14.3% | -8.6% | -12.9% | x | -1.3% | 11.2% | -0.1% | x
O=C(OCc1csc(-c2ccccc2)n1)c1ccc(O)cc1 | 61.7%[activator] | 6.3% | -11.5%[46.1 µM] | x | -39.8% | 21.7% | -14.9% | x
NC1=NC(=O)/C(=C/c2cn(Cc3ccccc3)c3ccccc23)S1 | 0.0% | u | 7.5% | 0.9% | u | 0.9% | 7.0% | 1.2%
COc1ccc(NC(=O)Cn2c(=O)oc3cc(S(=O)(=O)NCc4ccccc4)ccc32)c(OC)c1 | -3.0% | -5.1%[46.1 µM] | x | -5.8% | x | x | x | -2.4%
CC(=O)Nc1ccc(N2CC(C)(C)C2=O)cc1 | 5.2% | x | x | x | 3.9% | -12.4% | 0.0% | x
Nc1ccccc1C(=O)NCCCN1CCN(c2cccc(Cl)c2)CC1 | -26.4% | -26.7%[46.1 µM] | u | x | x | -8.5% | x | x
Cc1ccccc1-n1c(SCC(=O)N2CCC(C(=O)O)CC2)nnc1-c1ccncc1 | 10.9% | -2.2% | 7.6%[46.1 µM] | x | x | -0.4% | 0.0% | x
CCCCn1c(N)c(N(Cc2ccccc2OC)C(=O)CN2C(=O)NC(C)(c3ccccc3)C2=O)c(=O)[nH]c1=O (stereo not drawn) | 6.6% | 17.7% | -13.1% | x | x | 12.0% | -4.7% | x
COc1cccc(NC(=O)CCC2CCN(C(=O)c3c(C)noc3C)CC2)c1 | -12.3% | x | x | x | -9.4% | -9.9% | 8.7% | x
CCCC(C(=O)NC1CCCC1)N(Cc1ccc2c(c1)OCO2)C(=O)c1snc(C(N)=O)c1N (stereo not drawn) | x | 11.5% | u | -0.3% | 8.2% | 13.2% | 15.7% | -3.4%
COC(=O)CNC(=O)c1ccc(=O)oc1 | -13.8% | -0.5% | -19.4%[46.1 µM] | -8.4% | 2.3% | 15.9% | 1.3% | -4.9%
CSc1nc(-c2ccc(C)cc2)[nH]c1S(=O)(=O)c1ccccc1 | 24.1% | -1.0% | u | -14.2% | 7.0% | 6.4% | -3.7% | -1.3%
Cc1ccc(S(=O)(=O)NCCOc2nc(N3CCOCC3)nc(N3CCOCC3)n2)cc1 | 3.5% | 37.9%[14.3 µM] | 0.1% | 2.6% | -0.3% | 6.4% | 3.1% | 8.2%
CC1(C)Cc2[nH]c(=O)c(C#N)cc2CS1 | -2.7% | 5.5% | 1.9% | 3.2% | 8.9% | -2.3% | 2.8% | -0.2%
Cc1cc(-n2c(C)cc(C(=O)COc3cccnc3[N+](=O)[O-])c2C)no1 | 15.3% | 23.8% | -4.5% | x | x | -7.1% | -0.3% | x
CCOC(=O)C1=C(CC)Nc2ccccc2N/C1=N\S(=O)(=O)c1ccc(C(=O)OCC)cc1 | -19.1% | -0.6%[46.1 µM] | u | x | x | 9.2% | -0.4% | x
O=C1CN(C(=O)CSc2nc3ccccc3c(=O)n2Cc2ccc(F)cc2)c2ccccc2N1 | -11.4% | u | u | u | u | -0.8% | 13.6% | -28.8%
COCCCNC(=O)C1CCN(S(=O)(=O)N(CC(C)C)CC(C)C)CC1 | 13.8% | -8.4% | -16.2% | 18.7% | 2.8% | 0.0% | -0.3% | 0.7%
COc1ccccc1CCNS(=O)(=O)CCNC(=O)c1ccc2c(c1)OCO2 | 19.4% | 3.8% | 0.0% | x | x | -10.0% | -1.2% | x
CCOC(=O)c1c(NC(=O)COC(=O)CNC(=O)c2ccco2)sc(C)c1C | -16.9% | u | -17.0% | u | -8.6% | 29.4% | -15.3% | -14.9%
Fc1ccc(CNCCC(Cc2ccccc2)c2ccco2)cc1 (stereo not drawn) | -4.8% | -0.9%[46.1 µM] | u | x | 4.6% | -1.5% | -4.2% | x
COc1ccc(NC(=O)CSc2nnc(-c3ccccn3)n2N)c(OC)c1 | 19.8% | -12.1% | 11.3% | -8.6% | 7.0% | -16.4% | -3.3% | 2.6%
CCCc1cc(=O)oc2c3c(ccc12)OCN(Cc1ccc(OC)cc1)C3 | 0.3% | 5.4%[46.1 µM] | x | u | x | x | x | -5.1%
Cc1ccc(S(=O)(=O)N2CCC(=O)N(C(COCc3ccc(C(F)(F)F)cc3)Cc3ccccc3)CC2)cc1 (stereo not drawn) | -20.3% | 1.7% | u | -6.0% | u | -13.1% | -6.9% | -5.2%
COc1ccc(C(=O)C2CCN(C(=S)NCCc3ccccc3)CC2)cc1 | 39.8%[activator] | 21.4%[46.1 µM] | -3.0%[46.1 µM] | x | x | 11.5% | 2.3% | x
O=C(CN1C(=O)c2ccccc2S1(=O)=O)N1CCN(c2ccccc2)CC1 | 0.0% | 5.2% | -2.8% | -11.9% | -5.7% | 5.8% | -1.0% | 4.3%
CCCC(=O)Nc1ccc(C(=O)N/N=C/c2cccnc2)cc1 | 11.4% | -62.4%[14.3 µM] | u | 5.1% | 3.4% | -8.5% | 6.4% | -6.1%
Cc1ccc(C)c(S(=O)(=O)N2CCCCC2CCNC(=O)C(=O)NCc2ccccc2)c1 (stereo not drawn) | -0.5% | -29.6%[46.1 µM] | u | x | x | 21.0% | 6.1% | x
CN1C(=O)C(Cc2ccc3c(c2)OCO3)C(=O)N(C)C1=O | x | x | 0.7% | 2.5% | 0.1% | x | -0.7% | 0.2%
CC(C)NC(=O)CSc1ccccc1C(=O)NNC(=O)Cn1ccc(C(F)(F)F)n1 | -11.9% | -0.6% | -0.5% | x | x | 14.6% | 0.6% | x
CNC(=O)c1[nH]cnc1C(=O)N[C@@H](Cc1ccccc1)C(=O)OCc1ccccc1 | 6.8% | x | x | x | 0.2% | 8.3% | -1.3% | x
